BJeLR viability: BJeLR cell viability loss. BJeLR (HRASV12) viability, CellTiter-Glo ATP luminescence, 48 h; reference of the scale not given here. inhibition, % (concentration not given with the values). hit rate 0.17% among 300,000;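 active = replicate mean above 50%; inconclusive = above 50% but judged a plate artefact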;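 also: 50 nL library stock added to about 25 µL; numbers are from one replicate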
Sa ugtP lethal: compounds lethal to S. aureus RN4220 ugtP deletion mutant; OD600 growth, 16 h; some inactives read as strong as hits; hit rate 0.54% among 330,000; AID 1259309; growth inhibition, % (test concentration not listed);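 active = z-score under -3 and OD600 up to 0.15 on both plates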;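 also: plate controls were untreated wells for no effect and antibiotic for full effect; wells of about 80 µL received 100 nL stock; the first replicate is given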
Autofluor counter: compound fluorescence in toxin protease inhibitor counterscreen. compound autofluorescence counterscreen, microsphere flow cytometry; stronger effect = higher value. fluorescence intensity (test concentration not listed). hit rate 3.1% among 360,000;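 active = at least 3 SD above the mean of all compounds, about 16000 in these data; inconclusive = too few beads counted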;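 also: 100 nL of 1 mM stock went into each well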
Mtb hypoxia rep: inhibitors of hypoxia-regulated fluorescent reporter in Mycobacterium tuberculosis | AID 1159583 | hit rate 0.1% among 300,000 | fluorescence inhibition, % (concentration not given with the values) | M. tuberculosis hypoxia-regulated fluorescent reporter, fluorescence;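 active = 35 to 45% if threefold the growth effect, above 45% if 1.5-fold the growth effect; inactive = the rest, general growth blockers included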;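 also: wells of about 50 µL received 100 nL stock; 0% = vehicle wells and 100% = reference inhibitor wells; whole bacteria with a GFP reporter of the hypoxia response; strong numbers were not always called active; many hits fall short of the cut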
PrP 5UTR inh: inhibition of PrP 5' UTR reporter expression; cell-based PrP 5' UTR mRNA reporter, plate reader; inhibition, % (no concentration beside the values); hit rate 0.35% among 340,000; AID 488862;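 active = every replicate at 50% or more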;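 also: 0 = median of the neutral control wells; tested in H4 reporter cells; numbers are from one replicate; inactives centre near -14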
Sa RN4220 lethal: S. aureus RN4220 growth inhibition; inhibition, % (concentration not given with the values); hit rate 0.33% among 330,000; OD600, 16 h;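 active = z-score of -3 or lower and OD600 up to 0.18 on both plates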;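 also: plate controls were untreated cells for no effect and reference antibiotic for full effect; stock transfer was 100 nL into about 80 µL; one replicate is shown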
Mtb hypoxia rep growth: second read-out of Mtb hypoxia rep, no call of its own (marks repeat the call); growth inhibition, %; measured here: M. tuberculosis growth (absorbance);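 0% = vehicle and 100% = reference antibiotic; read after six days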
* marks the source's active call; other numbers are inactive results; ? = inconclusive; . = not tested or not shown. Rows are unselected (roughly 4% active in at least one column).

SMILES	BJeLR viability	Sa ugtP lethal	Autofluor counter	Mtb hypoxia rep	Mtb hypoxia rep growth	PrP 5UTR inh	Sa RN4220 lethal
OCC1(CCCc2ccccc2)CCN(C2CCSCC2)CC1	-1	6	2642	9	4	-17	2.3
Cc1c(C(=O)N2CC(C)OC(C)C2)sc2nc(-c3ccccc3)cn12 (stereo not drawn)	-1	1	.	11	6	.	1.8
CCC(=O)Nc1ccc(C(=O)NCc2ccccn2)cc1	-1	7	2008	4	0	-16	3.2
O=C(CN(c1ccc(F)cc1)S(=O)(=O)c1ccc2c(c1)OCCO2)NCc1ccccn1	-24	-1	5558	6	7	-12	5.0
O=C1COc2ccc(S(=O)(=O)CCC(=O)N3CCN(c4cccc(Cl)c4)CC3)cc2N1	-5	-2	4241	-9	-3	7	1.7
Cn1cc(C=NNC(=O)c2ccccc2O)c2ccccc21	.	5	.	10	1	.	7.2
COc1cccc(-c2c(C(=O)O)cc(O)c3ccc(OC)cc23)c1	.	-3	4102	3	8	3	-1.4
Cc1cc2ccccc2nc1SCC(=O)NC1CCCCC1	3	3	2344	1	-3	-25	-2.1
C[C@@]12C(=O)N(Cc3ccc(-c4ccccc4)cc3)CC(=O)N1C(C=Cc1ccccc1)C1C(=O)N(c3ccccc3)C(=O)C12 (stereo partly drawn)	.	10	.	4	5	.	2.1
Cc1ccc(NC(=O)COc2ccccc2C(=O)Nc2ccccc2)cc1Cl	-5	-4	2122	-2	-5	-22	-8.3
CC1CCCCN1S(=O)(=O)c1ccc(S(=O)(=O)NCCc2ccncc2)cc1 (stereo not drawn)	2	-7	9094	8	6	-50	9.3
CCCCOCCCNS(=O)(=O)c1ccccc1	3	7	7983	-1	10	-11	5.2
CCS(=O)(=O)n1nc(-c2ccc(Cl)cc2)nc1SC	-6	2	22674*	-1	3	-45	4.4
CCOC(=O)NN=C1CCS(=O)(=O)c2ccc(Cl)cc21	.	2	.	-3	0	.	3.3
CCc1ccccc1N(CC)C(=O)c1cn(C)c(=O)c2cc(OC)c(OC)cc12	-4	1	3096	.	.	-9	0.4
CC(C)N1CCN(Cc2ccc(C#CCCO)cc2)CC1CCO (stereo not drawn)	4	-3	2319	-11	5	-10	-3.6
O=C(Nc1nccs1)C1CCN(S(=O)(=O)c2ccc3c(c2)OCCCO3)CC1	1	0	12773	-9	-4	-14	4.1
COc1ccc(C(=O)Nn2c(C)nc3ccccc3c2=O)cc1[N+](=O)[O-]	-10	11	3800	16	-1	-7	4.3
CN1CCN(C(=O)C2=C[C@H](c3coc4ccccc4c3=O)C[C@H](OCc3ccc(CO)cc3)O2)CC1	-2	.	3712	.	.	-6	.
Cc1oc2cc(O)ccc2c(=O)c1N1C(=O)c2ccccc2C1=O	-1	-5	19700*	3	8	-28	2.3
CC(=NNC(=O)c1ccn(C)n1)c1cccc(NC(=O)c2ccc(C)s2)c1	.	-8	.	4	7	.	7.5
O=C(CSc1n[nH]c(-c2cccs2)n1)NCCc1ccccc1	5	1	.	-3	-2	2	1.6
Cc1ccc(C(=O)NC2CCN(C(=O)Nc3ccc(F)cc3)CC2)cc1	2	1	3616	-10	-2	-18	2.2
Cc1ccc(NC(=O)COC(=O)c2cccc(N3C(=O)c4ccccc4C3=O)c2)cc1	-11	-3	4510	8	2	-12	5.1
COC(=O)CSc1nnc(C)c(=O)[nH]1	13	-4	4617	-4	1	4	4.3

Molecules shown so far that contain a halogen, in the order listed:
SMILES	BJeLR viability	Sa ugtP lethal	Autofluor counter	Mtb hypoxia rep	Mtb hypoxia rep growth	PrP 5UTR inh	Sa RN4220 lethal
O=C(CN(c1ccc(F)cc1)S(=O)(=O)c1ccc2c(c1)OCCO2)NCc1ccccn1	-24	-1	5558	6	7	-12	5.0
O=C1COc2ccc(S(=O)(=O)CCC(=O)N3CCN(c4cccc(Cl)c4)CC3)cc2N1	-5	-2	4241	-9	-3	7	1.7
Cc1ccc(NC(=O)COc2ccccc2C(=O)Nc2ccccc2)cc1Cl	-5	-4	2122	-2	-5	-22	-8.3
CCS(=O)(=O)n1nc(-c2ccc(Cl)cc2)nc1SC	-6	2	22674*	-1	3	-45	4.4
CCOC(=O)NN=C1CCS(=O)(=O)c2ccc(Cl)cc21	.	2	.	-3	0	.	3.3
Cc1ccc(C(=O)NC2CCN(C(=O)Nc3ccc(F)cc3)CC2)cc1	2	1	3616	-10	-2	-18	2.2

The list goes on.
SMILES	BJeLR viability	Sa ugtP lethal	Autofluor counter	Mtb hypoxia rep	Mtb hypoxia rep growth	PrP 5UTR inh	Sa RN4220 lethal
CC1=N/C(=C\c2ccc([N+](=O)[O-])cc2)C(=O)N1c1ccc(Cl)cc1	4	-2	7738	10	3	-44	4.6
Cc1ccc(C(=O)N2CC(=O)Nc3ccc(F)cc3C2c2ccc(F)cc2)cc1 (stereo not drawn)	-8	5	3737	2	4	-12	1.2
c1ccc(Cn2nnnc2C(c2cccs2)N2CCSCC2)cc1 (stereo not drawn)	-1	-6	9424	12	-5	-16	2.0
Cc1cc([N+](=O)[O-])ccc1NC(=O)CCC(=O)N1CCCCCC1	-3	3	5701	13	-2	-16	0.6
CCCC=C1CCCOC(C(=O)NCc2ccccc2)(C(F)(F)F)C1 (stereo not drawn)	.	-6	.	14	6	.	6.9
COc1ccc(/C=N\N=C2/SC(CC(=O)O)C(=O)N2c2ccc(O)cc2)cc1OC (stereo not drawn)	-24	.	2437	.	.	-14	.
N#Cc1ccccc1S(=O)(=O)N1CCN(C(=O)CN2CCCSc3ccccc32)CC1	.	-1	4051	20	7	-13	4.5
O=C(COC(=O)c1ccccc1)Nc1cccc(S(=O)(=O)N2CCCCC2)c1	.	3	?	1	-1	-32	1.6
CCCCn1c(N)c(N(CC)C(=O)C2CCC2)c(=O)[nH]c1=O	.	3	2935	9	-8	-17	2.4
CCc1ccc(-c2cc(C)no2)cc1S(=O)(=O)N1CCN(c2cc(C)ccc2C)CC1	-1	18	4505	0	-3	-7	6.3
CCc1ccc2c(c1)C(c1ccc([N+](=O)[O-])cc1)=NNC(c1ccc(Br)cc1)=N2	-4	5	2117	-4	4	-14	-9.2
Cn1c(NCc2cccnc2)nc2c1c(=O)n(Cc1ccccc1F)c(=O)n2C	9	-3	9280	0	9	-20	5.8
Cc1cc(C)cc(-n2ncc3c2CCCC3NC(=O)c2cc(C)oc2C)c1 (stereo not drawn)	0	6	5515	7	3	-6	3.3
CCOc1ccc(C=NN2C(=O)C(CC(=O)Nc3ccc(F)cc3F)SC2=NC)cc1OC (stereo not drawn)	.	-12	.	3	5	.	1.1
Cc1ccc(NC(=O)CSCC(=O)NCCc2ccccc2)c(C)c1	.	-1	?	-5	1	-7	-1.7
Cc1cc(C(=O)COc2ccc(-c3nnco3)cc2)c(C)n1Cc1ccccc1	2	-7	?	6	11	-8	1.4
O=C(Nc1ccc(O)cc1)/C(=C\c1cccs1)NC(=O)c1ccccc1	6	-2	2024	20	3	-13	3.7
O=C(CCCC(=O)Nc1ccccc1Br)N/N=C/c1c(F)cccc1Cl	-2	.	4672	.	.	8	.
O=C1NC(c2cc3c(cc2Cl)OCO3)Oc2ccccc21 (stereo not drawn)	7	-1	9243	-9	-7	-14	2.6
O=C(CSc1nnc(COc2ccccc2)n1-c1ccccc1)c1ccccc1	-1	-11	4855	5	5	-1	5.1
COc1ccc(N2CCN(C(=O)CNC(=O)c3cn(-c4ccccc4OC)c(=O)c4ccccc34)CC2)cc1	-3	-1	4610	1	0	-3	2.4
Cc1cccc(NC(=O)CN2C(=O)N/C(=C\c3ccc(-c4cccc(C(=O)O)c4)o3)C2=O)c1	-6	.	4163	.	.	-26	.
Cc1ccc(S(=O)(=O)NC(C)C(=O)NC2CCCCCC2)cc1 (stereo not drawn)	11	3	4752	.	.	-33	1.3
Cn1c2c(c(=O)n(C)c1=O)CN(Cc1ccc(F)cc1)CN2	7	11	2520	5	8	-26	-4.1
CCCc1nc2ccccc2n1CCOc1ccccc1	1	14	3571	10	3	-14	2.3

An excerpt of these results, as a markdown table.
| Molecule | BJeLR viability | Sa ugtP lethal | Autofluor counter | Mtb hypoxia rep | Mtb hypoxia rep growth | PrP 5UTR inh | Sa RN4220 lethal |
| --- | --- | --- | --- | --- | --- | --- | --- |
| Cc1oc2cc(O)ccc2c(=O)c1N1C(=O)c2ccccc2C1=O | -1 | -5 | 19700* | 3 | 8 | -28 | 2.3 |
| CC(=NNC(=O)c1ccn(C)n1)c1cccc(NC(=O)c2ccc(C)s2)c1 | . | -8 | . | 4 | 7 | . | 7.5 |

Next part.
SMILES	BJeLR viability	Sa ugtP lethal	Autofluor counter	Mtb hypoxia rep	Mtb hypoxia rep growth	PrP 5UTR inh	Sa RN4220 lethal
Cc1cccc(C(=O)NCCNC(=O)c2cccc(C)c2)c1	-3	8	2465	2	5	-13	-1.5
COc1ccc2oc(C(=O)OCC(=O)NCCN3C(=O)CSC3=O)c(C)c2c1	8	-1	2077	-2	-3	-24	8.1
O=C(Cn1nnc2ccccc2c1=O)N[C@H](C(=O)O)c1ccccc1	0	2	3571	7	12	-26	2.7
COc1ccc(CNC(=O)c2noc3c2CCCC3)cc1	-11	3	11801	2	5	.	6.4
Cc1onc(-c2c(F)cccc2Cl)c1C(=O)OCC(=O)Nc1c(C)n(C)n(-c2ccccc2)c1=O	-12	3	4653	-8	-8	-1	-4.4
Cc1cc(=O)oc2cc(OCC(=O)Nc3nccs3)ccc12	-2	2	5337	-1	3	-75	-2.5
COc1ccc(CNC(=O)C(NC(C)=O)C(C)C)cc1OC (stereo not drawn)	-13	3	3810	-4	0	-19	2.5
CCOc1nc(-c2ccccc2)ccc1-c1noc(COC)n1	-9	10	3477	14	1	-21	4.6
CCC(=O)Nc1ccc(C(=O)COC(=O)c2nc3nccc(C)n3n2)cc1	.	-1	3422	0	-3	-10	8.9
Cc1nn(C)c(C)c1S(=O)(=O)N1CCC(C(=O)NC2CCCc3ccccc32)CC1 (stereo not drawn)	-5	-4	6357	.	.	-28	0.7
O=C(O)Cc1sc(NC2CCCCC2)nc1-c1ccc(Cl)cc1	-11	3	5688	-12	-1	-19	-3.9
COC(=O)C1C(=O)C2=C(CC1C)NC(=O)CC2c1ccccc1 (stereo not drawn)	16	6	2559	.	.	-22	-4.5
CCOCCCNC(=O)C(c1ccc(Cl)cc1)N(Cc1cccs1)C(=O)c1ccccn1 (stereo not drawn)	-3	4	3110	9	7	-9	5.2
CCCCC(NS(=O)(=O)c1ccc(C)cc1)C(=O)Oc1ccc2c3c(c(=O)oc2c1)CCC3 (stereo not drawn)	-21	8	2651	3	-2	-15	2.4
CCCN(CCC)Cc1cc2ccccc2c2c1COC2	6	4	2524	2	4	-17	4.4
C=CCc1ccccc1OCC(CN1CCCCC1)OC(C)=O (stereo not drawn)	-3	-4	4642	10	-1	-19	6.1
Cc1ccc(CCN2CC(C(=O)NCCCN3CCCCCC3)CC2=O)cc1 (stereo not drawn)	-6	-2	3336	2	14	-19	-6.1
O=S(=O)(Nc1cccc2ccccc12)c1cccc2nonc12	1	-4	.	13	11	-5	11
COc1cc(C(O)P(=O)(OCCC(C)C)c2ccc(N(C)C)cc2)cc(OC)c1OC (stereo not drawn)	-2	3	3308	2	3	-5	-0.5
O=C(Nc1ccccn1)c1ccc(COc2ccccc2Cl)o1	5	5	9265	11	0	-48	9.5
CCCOc1ccc(C(F)(F)F)cc1NS(=O)(=O)c1ccc(Cl)nc1	.	-3	?	6	2	-28	7.8
O=c1oc2cc(O)ccc2cc1-c1ccccc1	2	-2	4792	-1	6	-47	4.3
COc1cccc2cc(C(=O)CS(=O)(=O)c3ccc(Cl)cc3)c(=O)oc12	1	1	5740	8	7	-13	3.9
C/C(=N\NC(=O)Cc1cccn1C)c1ccc2ccccc2c1	-2	.	3489	.	.	-44	.
CSc1sc(C#N)c2c1C(=NO)CCC2	.	-4	.	1	21	.	0.1

High-throughput results (PubChem)
